Source: PubChem BioAssay (National Center for Advancing Translational Sciences (NCATS))
Vaccinia mCherry – vaccinia inhibition (mCherry reporter). Vaccinia virus mCherry reporter infection, fluorescence; about a quarter of the inactives have no number. Potency, µM (doses to about 36.5 µM), for the others: at the highest dose activity change, negative = inhibition, most hits filed as inhibitors. 310,000 compounds, 0.63% hits; active = well fitted inhibition curve with a large enough effect; inconclusive = small, poorly fitted or top-dose-only effect; inactive = no such curve, though single readings can be large or run the other way; tested in A549 cells; note: nearly all actives have a fitted effect of over 35% in size; inactives centre near -10
VACV Venus inh – inhibitors of vaccinia virus (Venus reporter); Potency, µM (top dose mostly 36.5 µM), inactives show at the top dose activity change, negative = inhibition, hits mostly inhibitors; 330,000 compounds, 0.46% hits; Vaccinia virus Venus reporter expression, fluorescence; active means well fitted inhibition curve with a large enough effect; inconclusive means small, poorly fitted or top-dose-only effect; inactive means no such curve, though single readings can be large or run the other way; tested in A549 cells; note: nearly all actives have a fitted effect of over 30% in size; inactives centre near -10
The depositor's hits bear a star; i = inactive; ? = inconclusive; · = no result given; [ ] = remark or other dose. % is set by controls: 0 for no effect and ±100 for the full control effect; potency is the fitted concentration of half-maximal effect.

Compound	Vaccinia mCherry	VACV Venus inh
COc1ccc(NC(=S)N2CCOCC2)c(OC)c1	i	-6%
CCc1cc(=O)[nH]c(SCC(=O)N2CCOCC2)n1	-1%	-2%
CC(C)CNC(=O)COC(=O)c1c2c(nc3ccccc13)/C(=C\c1cccs1)CC2	-20%	?
O=C(Nc1ccccc1Cl)O/N=C/c1ccc(F)cc1	-17%	-11%
Cc1cccc(NC(=O)Cc2ccc(-c3ccccc3)cc2)n1	-14%	-10%
Cc1ccc(NC(=O)c2cccs2)cc1	-19%	-16%
CN(CC(=O)Nc1ccccc1Cl)C(=O)c1ccc(Cl)c(S(=O)(=O)N2CCCCCC2)c1	-6%	-17%
O=Cc1cccn1-c1nccc(-c2ccco2)n1	-14%	-5%
COC(=O)c1ccccc1NC1OC(=O)c2ccccc21 (centres undefined)	-5%	-4%
CC(=O)Nc1cncc(-c2cnn(CC(C)C)c2)n1	3%	-1%
COC(=O)c1c(C)[nH]c(C(=O)COC(=O)CCc2ccc(OC)c(OC)c2)c1C	i	-5%
COc1ccccc1NS(=O)(=O)c1cc(NC(=O)c2cccs2)ccc1N1CCCC1	-26%	-17%
O=C(NN=Cc1ccccc1O)C1CC1	-26%	-12%
COc1ccc(C(CNC(=O)CNC(=O)c2cccc(F)c2)N2CCOCC2)cc1 (centres undefined)	-5%	-17%
CCCCN(C(=O)c1cccc(S(=O)(=O)N2CC(C)OC(C)C2)c1)c1c(N)n(CC(C)C)c(=O)[nH]c1=O (centres undefined)	-7%	2%
CC(=O)Cc1ccccc1OC(=O)c1ccco1	-11%	3%
CC(=O)c1ccc(NC(=S)N2CCN(CCO)CC2)cc1	-10%	1%
Cc1c(C(=O)N2CCOCC2)c(S(=O)(=O)N2CCN(c3ccc(Cl)cc3)CC2)c(C)n1C	-10%	-7%
COc1ccc(CNC(=O)CCc2c(C)c3ccc(OC)c(C)c3oc2=O)cc1OC	-4%	-12%
C=CCOc1c(OC)cc(/C=N/Nc2cccc(C(=O)O)c2)c(Br)c1Br	i	-13%
CN(CC(=O)Nc1ccc(F)cc1)C(=O)CN1C(=O)NC2(CCCc3ccccc32)C1=O (centres undefined)	-18%	-19%
COc1ccccc1/C=C/C=N/n1c(-c2cc(C)[nH]n2)n[nH]c1=S	-10%	-24%
COc1ccc(C2=NOC(C3(S(=O)(=O)c4ccccc4)CC(O)C3)C2)cc1 (centres undefined)	i	-18%
Cc1cc(NC(=O)c2ccc3sc([C@@H]4O[C@H](CO)[C@H](O)[C@H](O)[C@H]4O)nc3c2)no1	10%	-4%

Quoted at random: five compounds from above
Compound	Vaccinia mCherry	VACV Venus inh
COc1ccc(CNC(=O)CCc2c(C)c3ccc(OC)c(C)c3oc2=O)cc1OC	-4%	-12%
O=C(NN=Cc1ccccc1O)C1CC1	-26%	-12%
Cc1cc(NC(=O)c2ccc3sc([C@@H]4O[C@H](CO)[C@H](O)[C@H](O)[C@H]4O)nc3c2)no1	10%	-4%
COc1ccccc1/C=C/C=N/n1c(-c2cc(C)[nH]n2)n[nH]c1=S	-10%	-24%
C=CCOc1c(OC)cc(/C=N/Nc2cccc(C(=O)O)c2)c(Br)c1Br	i	-13%

The list continues.
Compound	Vaccinia mCherry	VACV Venus inh
CCCCn1c(=O)c(CC(C)=O)nc2ccccc21	-2%	-12%
O=C(O)c1nn(Cc2ccc(Cl)c(Cl)c2)c2ccccc12	-14%	-8%
COCCNC(=O)c1sc2ncccc2c1-n1c(C)ccc1C	-7%	-12%
CCSc1nnc(NC(=O)C2CCCCC2)s1	-15%	-4%
O=C1NC2(CCCCCC2)C(=O)N1Cc1ccc(Cl)cc1Cl	-18%	-26%
CN(C)c1ccc(C=Nc2ccc(N(C)C)cc2)cc1	·	20%
Cc1cnc(NC(=O)CSc2ccc(Cl)cc2)s1	-15%	-21%
O=C(CSc1n[nH]c(-c2ccncc2)n1)c1cccc([N+](=O)[O-])c1	-14%	-11%
CCOC(=O)c1sc(=S)n(C)c1NC(=O)c1ccc(OC)cc1	-26%	-22%
CCCc1[nH]nc2c1C1(C(=O)N(CC(N)=O)c3ccccc31)C(C(=O)OC)=C(N)O2 (centres undefined)	·	7%
CC1C/C(=C/c2cccs2)C(=O)/C(=C/c2cccs2)C1 (centres undefined)	-28%	-14%
Cc1ccccc1Nc1nc(N)nc(CN(C)Cc2ccccc2Cl)n1	-29%	-21%
COC(=O)C1=C(c2cccc(OC)c2OC)C[C@@H]2CC[C@H]1N2C(=O)N1CCC(O)CC1	-10%	-2%
COc1ccc(S(=O)(=O)N/N=C(/C)c2ccc(C)o2)cc1	-6%	-8%
C#CCNc1ccc(C(=O)OCC)cc1	-10%	-8%
Cn1c(=O)c2c(-c3ccccc3)n(-c3ccccc3Br)cc2n(C)c1=O	-1%	-22%
Cc1cc(N)n2nc(C)c(-c3ccc(Cl)cc3)c2n1	?	?
CC(=O)c1cnc(N(C)C)s1	-4%	-19%
CC(C)CCOC(=O)c1c(N)n(CC2CCCO2)c2nc3ccccc3nc12 (centres undefined)	-24%	?
Cc1ccc(C)c(NC(=O)CSc2nnc(-c3cc(C)[nH]n3)n2N)c1	i	-20%
CCC(C)[C@H](NC(=O)NCCC1=CCCCC1)C(=O)O (some centres undefined)	-14%	-13%
Cc1ccc(-c2nnc(Nc3cccc(Cl)c3)c3ccccc23)cc1S(=O)(=O)NCC1CCCO1 (centres undefined)	-21%	-22%
CCCCN(C(=O)CC1CCCCC1)c1c(N)n(CCCC)c(=O)[nH]c1=O	i	-14%
CCOC(=O)c1[nH]cnc1C(=O)Nc1ccccc1	-18%	-18%
Cc1c(C(=O)N(C)Cc2ccc(OC(F)F)cc2)oc2ccccc12	-6%	-10%
CC(C)(C)NC(=O)CSc1nncn1-c1ccccc1	-7%	0%
Cc1nn(CC(=O)N2CCCCCC2)c(=O)c2cc3occc3n12	-7%	-5%
O=C(NCCNCc1ccccn1)c1ccco1	i	3%
COc1ccc(Cc2nc(C(=O)Nc3ccc(F)cc3)cs2)cc1	-18%	?
CCc1cccc(OCC(=O)N(C)CC(=O)Nc2cccc(F)c2)c1	-1%	-14%
O=C1ON=C(c2ccc([N+](=O)[O-])cc2)/C1=C/c1ccccc1O	-1%	-15%
CCOc1ccc(C(=O)NCC(=O)OCC(=O)Nc2ccccc2OC)cc1	-13%	-13%
CCOC(=O)c1c(COc2ccccc2)oc2ccc(O)cc12	-13%	-7%
COCC(=O)c1[nH]c2ccccc2c1C	-13%	-6%
COC(=O)c1ccc(Cl)c(NC(=O)CN(c2ccccc2)S(=O)(=O)c2ccc(OC)cc2)c1	-13%	-32%
CCCCC(CCC(=O)Nc1cccc([N+](=O)[O-])c1)C(=O)O (centres undefined)	-6%	-6%
CCOC(=O)[C@]12CCCC=C1N(Cc1ccc(Cl)cc1Cl)C(=O)[C@H](CC(=O)N1CCCCC1)C2	i	-10%
CC(=O)CC(C)(C)S(=O)(=O)c1ccc(NC(C)=O)cc1	-17%	-8%
Cc1cc(OCC(=O)Nc2ccncc2)cc(C)c1Br	-9%	?
Cc1ccc2[nH]c3c(c2c1)CNCC3	-25%	-10%
COc1ccccc1CNS(=O)(=O)CCNC1CCCCC1	i	0%
Cc1ccc(C(=O)CC2(O)C(=O)N(Cc3ccccc3)c3ccc(Br)cc32)cc1 (centres undefined)	-8%[7.34 µM]	-3%[7.34 µM]
COc1ccc(C2C3CCCCC3(O)CCN2C(=O)c2cccs2)cc1 (centres undefined)	-15%	-6%
COc1ccc(CNC(=O)C(=O)Nc2ccccc2OC)cc1	-8%	3%
O=C(O)c1ccc(N2CCN(c3ccc(Cl)cc3)CC2)c([N+](=O)[O-])c1	i	-10%
COc1ccc(NC(=O)CSc2nc(-c3ccc(OC)cc3)[nH]c2-c2ccc(F)cc2)cc1	-10%	-14%
CCOC(=O)C1(C(=O)OCC)C(C)CC(=O)N1c1ccccc1OC (centres undefined)	i	-7%
CC(C)(C)OC(=O)C[C@@H]1C/C=C\C[C@H](CC(=O)N(CCO)Cc2ccccc2)C(=O)NC[C@@H](c2ccccc2)OC1=O	i	?
CCc1cccc(CC)c1N1C(=O)c2cc(N3CCOCC3)c([N+](=O)[O-])cc2C1=O	-8%	-6%
Cc1nonc1OCCNCCNc1ccc([N+](=O)[O-])cc1Cl	i	-3%
CSc1nnc(NC(=O)c2ccc(C)c(S(=O)(=O)N3CCOCC3)c2)s1	·	9%
C[C@H]1CN([C@@H](C)CO)C(=O)c2cc(Br)cnc2O[C@H]1CN(C)C(=O)Cc1ccccn1	i	-5%
COc1cc2nc(NC(=O)c3ccc(Cl)cc3)sc(=O)c2cc1OC	-12%	-6%
COCCNC(=O)c1cn(C2CCN(C3CCCC3)CC2)nn1	-6%	4%
O=C(NCC[C@@H]1CC[C@@H](NC(=O)c2cnccn2)[C@@H](CO)O1)c1ccc2c(c1)OCO2	-16%	-7%
CC(C)c1ccc(NC(=O)C2CCN(C(=O)c3ccc(F)cc3)CC2)cc1	-9%	-10%
CCCCCCCCNS(=O)(=O)CCNCc1ccco1	i	-6%
Cc1ccc(NC(=O)c2ccc(C(=O)c3ccccc3)cc2)nc1	i	-19%
COc1ccc(/C=C/C(=O)Nc2ccc(-n3nncc3-c3ccccc3)cc2)cc1OC	-6%	-24%
CCOC(=O)C1=C(N)Oc2cc(O)ccc2C1c1ccc(C)cc1 (centres undefined)	-26%	?

More entries follow:
compound | Vaccinia mCherry | VACV Venus inh
CCc1cccc(C)c1Nc1c(-c2ccc(N(C)C)cc2)nc2ncccn12 | -18% | -6%
NC(=O)COC(=O)c1cccc(S(=O)(=O)N2CCCCC2)c1 | i | -8%
O=C(c1ccccc1Cc1ccccc1)N1CCN(S(=O)(=O)c2ccccc2Br)CC1 | ? | -25%
O=C(NCC(c1ccc2c(c1)OCO2)N1CCN(c2ccccc2F)CC1)c1ccccc1F (centres undefined) | i | -10%
Cc1n[nH]c(C)c1S(=O)(=O)N1CCCC(C(=O)Nc2ccc(Br)cc2)C1 (centres undefined) | ? | -23%
O=C(NCCCN1CCOCC1)c1ccccc1N1C(=O)[C@@H]2Cc3c([nH]c4ccccc34)C(c3cccc(Cl)c3)N2C1=O (some centres undefined) | -30% | -25%
C/C(N)=C(/C#N)C(=O)COC(=O)C1CCC(C(C)(C)C)CC1 (centres undefined) | -21% | -20%
CCC1CN(CCNC(=O)c2cn3cc(C)ccc3n2)Cc2cc(OC)ccc2O1 (centres undefined) | -28% | -21%
O=C(NC1CC1)c1ccc(CN(c2ccccc2)S(=O)(=O)c2ccccc2)cc1 | -16% | -19%
CCCN1CCc2cccc3c2[C@H]1Cc1ccc(O)c(O)c1-3 | -1% | -9%
CCc1ccc(C(=O)c2cn(CC(=O)Nc3ccc4c(c3)OCO4)c3ccc(Cl)cc3c2=O)cc1 | -26% | ?
O=C(COc1ccc(C(=O)NCC2CCCO2)cc1)Nc1cccc(C(F)(F)F)c1 (centres undefined) | i | -21%
Cc1noc2ncnc(Sc3c(Cl)cccc3Cl)c12 | -13% | -12%
CCOC(=O)c1ccc(NC(=O)CC2C(=O)N(c3ccc(F)cc3)C(=O)N2CCCOC)cc1 (centres undefined) | -1% | -6%
Cc1cc(C)cc(OCC(=O)OCC(=O)NCc2ccco2)c1 | i | -14%
COc1ccc(CN2CC(C(=O)NCc3ccccn3)CC2=O)cc1 (centres undefined) | · | -10%
Fc1cccc(/C=N/Nc2cc(N3CCOCC3)ncn2)c1 | -15% | 5%
Cc1cccc(C(=O)NN2S(=O)(=O)c3ccccc3S2(=O)=O)c1 | i | -11%
CN(C)C(=S)Nc1ccc([N+](=O)[O-])cc1 | -15% | -7%
COc1ccccc1CN(C)C(=O)CN1C(=O)c2ccccc2C1=O | 11% | -5%
CC(C)Oc1cccc(C(=O)NC(=S)Nc2ccc3c4c(cccc24)CC3)c1 | · | -17%
Cc1ccc(S(=O)(=O)N(C)C)cc1NC(=O)COC(=O)Cc1ccsc1 | -18% | -3%
Cc1nc(-c2noc(-c3cccc(Cl)c3)n2)c(C(F)(F)F)o1 | i | 0%
Cc1ccc(-c2nn(C)c(=O)c3ccccc23)cc1CNC(=O)c1ccccc1 | -9% | -14%
CCOC(=O)c1cc2[nH]c3ccccc3c2[n+](-c2ccc([N+](=O)[O-])cc2)c1N | -16% | -8%
O=C(Cn1cnc2ccccc2c1=O)c1ccc2ccccc2c1 | · | -19%
CC(C)c1nnc(SCC(=O)Nc2ccc3c(c2)OCO3)n1C | -29% | -24%
O=C(Nc1ccc(CSc2ccccc2)cc1)c1ccc(CN2CCOCC2)cc1 | ? | -11%
Cc1[nH]c(=O)[nH]c(=O)c1S(=O)(=O)NCCc1ccc(S(N)(=O)=O)cc1 | i | -7%
COc1ccc(C(C#N)N2N=C(c3ccccc3)CC2c2ccccc2)cc1OC (centres undefined) | -2% | -14%

Gathered by group, those above containing a CF3 group (two)
compound | Vaccinia mCherry | VACV Venus inh
O=C(COc1ccc(C(=O)NCC2CCCO2)cc1)Nc1cccc(C(F)(F)F)c1 (centres undefined) | i | -21%
Cc1nc(-c2noc(-c3cccc(Cl)c3)n2)c(C(F)(F)F)o1 | i | 0%
